FGF22 binding = binders of recombinant human FGF22 by thermal shift; Q9HCT0; SYPRO orange fluorescence; percent of sucrose octasulfate shift, DMSO zero; calls only at 9.99 µM; 340,000 tested, 1.5% active; AID 651658;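 active means melting point raised past a set limit in the mean and every replicate; three in four hits are not shown here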
Target sequence (Q9HCT0 whole entry, looked up): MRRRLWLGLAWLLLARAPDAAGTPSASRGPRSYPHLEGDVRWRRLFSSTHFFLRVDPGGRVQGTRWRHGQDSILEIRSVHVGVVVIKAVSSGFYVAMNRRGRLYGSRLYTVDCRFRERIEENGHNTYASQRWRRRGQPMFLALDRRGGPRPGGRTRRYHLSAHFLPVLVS
AF4-AF9 inh = MLL-AF4/AF9 protein interaction inhibition. P42568. AlphaScreen, biotin-AF4 peptide binding to FLAG-AF9. inhibition, % at 10 µM. 350,000 tested, 0.47% active;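 active means every replicate reaching a set inhibition limit, whatever the replicate mean, cut at about 25% in these data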;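 further: 0% = plate neutral control median and 100% = total signal loss; the record names both 10 and 1 µM as test concentration; the first replicate is given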
Target sequence (P42568 whole entry, looked up): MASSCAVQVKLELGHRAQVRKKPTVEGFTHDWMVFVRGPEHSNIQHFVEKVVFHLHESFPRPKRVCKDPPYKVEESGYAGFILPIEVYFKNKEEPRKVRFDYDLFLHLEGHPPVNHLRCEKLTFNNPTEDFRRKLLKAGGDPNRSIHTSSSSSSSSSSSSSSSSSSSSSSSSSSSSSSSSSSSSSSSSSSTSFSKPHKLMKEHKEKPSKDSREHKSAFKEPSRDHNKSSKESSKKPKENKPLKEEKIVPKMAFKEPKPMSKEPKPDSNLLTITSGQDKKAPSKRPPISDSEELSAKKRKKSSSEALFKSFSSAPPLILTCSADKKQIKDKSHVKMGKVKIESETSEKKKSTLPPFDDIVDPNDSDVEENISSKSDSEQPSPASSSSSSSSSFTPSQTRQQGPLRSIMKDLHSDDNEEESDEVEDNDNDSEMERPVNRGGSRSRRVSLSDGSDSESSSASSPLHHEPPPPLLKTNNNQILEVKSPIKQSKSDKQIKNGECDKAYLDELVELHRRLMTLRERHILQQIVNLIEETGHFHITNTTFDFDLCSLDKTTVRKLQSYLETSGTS
rRNA inh HTS = inhibits bacterial ribosomal RNA function over humanized ribosomes; E. coli WT GFP vs humanized-ribosome RFP mutants, fluorescence, 24 h; stronger effect = lower value; DMSO median 0, no signal -100; GFP signal change (wild-type ribosome), % (test concentration not listed); 350,000 tested, 1.6% active; AID 720706;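 active means significant combined selectivity score with lowered wild-type GFP, culture density cut under 30%, mutant RFP and density less affected; inactive means any of these conditions unmet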; further: one replicate is shown; some compounds called inactive have numbers as strong as hits
ALR inh = blocks human ALR sulfhydryl oxidase activity. purified ALR, DTT oxidation, H2O2 HRP-luminol luminescence. inhibition, % (no concentration beside the values). 290,000 tested, 3.8% active;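 active means mean and each replicate at 75% or more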;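 further: stock transfer was 7.5 nL into about 7.5 µL; 0% = neutral wells and 100% = wells with inactivated enzyme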
Target sequence (P55789 whole entry, looked up): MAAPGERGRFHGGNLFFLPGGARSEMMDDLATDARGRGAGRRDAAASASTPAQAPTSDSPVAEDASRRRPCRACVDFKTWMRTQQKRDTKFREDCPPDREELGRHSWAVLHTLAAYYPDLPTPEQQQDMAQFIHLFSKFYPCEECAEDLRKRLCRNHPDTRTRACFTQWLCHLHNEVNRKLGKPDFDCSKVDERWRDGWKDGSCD
Ecoli growth = inhibitors of Escherichia coli growth; AID 1053175; 330,000 tested, 0.21% active; OD600 absorbance (test concentration not listed); OD600, 23 h; stronger effect = lower value;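 active means OD600 absorbance below the run mean of sample wells minus 3.6 SD, in any replicate, cut at about 0.56 in these data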;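 further: stock transfer was 300 nL into about 60 µL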
Vif A3G = HIV-1 Vif–A3G interaction blockers – biochemical, TR-FRET, GST-Vif 1-94, biotin-A3G peptide, dose response retest, primary screen (AID 1117319); TR-FRET GST-Vif / biotin-A3G peptide binding; higher % means a stronger effect; test concentration not given here; strong numbers were not always called active; inhibition, %, or IC50 in µM where a hit was titrated; 260,000 tested, 0.57% active;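 active means above the screen mean plus three standard deviations and confirmed in dose response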;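 further: Vif residues 1-94 fused to GST binding biotinylated APOBEC3G peptide 110-148; 0% = full assay without inhibitor and 100% = GST in place of GST-Vif; retest series ran down from 100 µM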
HNF4A DNA FP = change in binding of human HNF4 alpha to DNA; P41235; HNF4a-FITC DNA binding, fluorescence polarization, 1 h; activity change, % at 10 µM; 360,000 tested, 0.3% active; in the data active means activity change above about 30%, passing the limit was not always enough;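 further: controls were the assay level and a saturating level of protein; the project sought stronger binding though the title names inhibitors; some compounds called inactive have numbers as strong as hits; positive values seem to mean higher polarization but the record does not say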
rRNA inh HTS OD600 = also measured in rRNA inh HTS; calls as there; OD600 change, %; measured here: OD600 growth;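 optical density of the mix in the first replicate; 0 = DMSO median and -100 = no signal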
rRNA inh HTS RFP = recorded beside rRNA inh HTS, whose call it bears; RFP signal change, %; measured here: RFP humanized mutant strains;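 first replicate; 0 = DMSO median and -100 = no signal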
Starred values were filed as active, the others as inactive; i = inactive; . = not tested or not shown; & = joins results of further samples.

cpd	Molecule	FGF22 binding	AF4-AF9 inh	rRNA inh HTS	rRNA inh HTS OD600	rRNA inh HTS RFP	ALR inh	Ecoli growth	Vif A3G	HNF4A DNA FP
1	COc1ccc(NC(=O)Nc2cccc(C)n2)c(OC)c1	i	-1.9	7	8	1.0	-10	0.68	10%	-1.4
2	COc1ccccc1C(CNC(=O)c1cc(S(=O)(=O)N2CCOCC2)ccc1C)N1CCCC1 (stereo not drawn)	i	0.0	.	.	.	-3	0.7	-1%	1.2
3	CCCCCN(C(=O)CCC(=O)OCc1ccccc1Cl)c1c(N)n(CCCC)c(=O)[nH]c1=O	i	-1.8	8	12	2.8	-1	0.63	.	0.1
4	CCOC(=O)c1cc2c(=O)[nH]ccc2nc1C(F)(F)F	i	-12	-1	-2	0.2	-10	0.63	1%	3.7
5	c1ccc(-c2cn(-c3ccccc3)c3ncnc(NCCCN4CCOCC4)c23)cc1	i	6.4	-43	-67	-8.0	.	0.7	9%	0.1
6	NS(=O)(=O)c1c(Sc2ccccc2C(=O)O)ccc2ccccc12	i	-3.9	-2	0	2.7	.	0.7	-35%	-2.7
7	CC(=O)Nc1sc(N/N=C/c2ccccc2F)nc1-c1ccc(C)cc1	i	3.4	-5	-2	-0.7	6	.	6%	-1.5
8	O=C(COC(=O)Cn1cnc2ccccc2c1=O)NNC(=O)c1ccc(Br)cc1	i	-0.5	4	19	1.2	.	0.71	-4%	-8.5
9	Cc1cc(C)n2nc(SCC(=O)c3ccc[nH]3)nc2n1	.	.	.	.	.	-1	0.7	4%	2.1
10	Cc1cccc(-c2ccc([C@H]3[C@@H](CO)N4CCCCN(Cc5cccnc5)C[C@@H]34)cc2)c1	i	5.2	1	1	2.7	.	.	.	.
11	O=C(CNCc1ccc(F)cc1)Nc1cc(S(=O)(=O)N2CCOCC2)ccc1Cl	i	2.7	-7	-5	3.4	-1	0.67	.	-1.1
12	Cc1ccn2c(=S)[nH]nc2c1	i	-1.9	.	.	.	.	.	.	-2.3
13	CCNC(=O)C[C@H]1CC[C@@H]2[C@@H](COc3ccc(NC(=O)c4ccc5c(c4)OCO5)cc3C(=O)N2C)O1	i	1.4	-2	0	0.0	.	.	.	.
14	Cc1c(N=C2SCC(=O)N2c2c(C)n(C)n(-c3ccccc3)c2=O)c(=O)n(-c2ccccc2)n1C	.	.	.	.	.	-3	0.66	-1%	0.4
15	O=C(COC(=O)c1ccncc1)c1ccccc1	i	-5.4	10	-5	-0.8	-2	0.7	-4%	-4.0
16	CCOC(=O)Cc1c[nH]c(=S)[nH]c1=O	i	-5.5	5	21	-0.2	.	.	-7%	4.8
17	O=C(C[C@H]1CC[C@H]2[C@@H](COC[C@@H](O)CN2Cc2ccc(Oc3ccccc3)cc2)O1)N1CCN(c2ccccc2)CC1	i	10	-5	-25	8.0	.	.	.	.
18	COc1ccc(S(=O)(=O)Nc2cccc3c2O[C@H](CN(C)C(=O)Nc2ccccc2)[C@H](C)CN([C@H](C)CO)C3=O)cc1	i	3.8	-1	-1	-0.7	.	.	.	.
19	COc1ccc(C2CC(=O)C=C(NCCC(C)C)C2)cc1 (stereo not drawn)	.	.	.	.	.	-13	0.76	1%	2.9
20	CCCCNC(=O)c1onc(CSc2ccccn2)c1C(=O)NCCCC	.	.	.	.	.	-1	0.7	.	-1.5
21	CC(C)(C)CN1CCNC(=O)C1CC(=O)NC1Cc2ccccc2C1 (stereo not drawn)	i	1.2	6	8	0.3	-12	0.73	19%	1.9
22	Cc1ccc(NC(=O)C(OC(=O)c2cc(C)oc2C)c2ccccc2)cc1 (stereo not drawn)	i	-0.1	0	-3	-0.9	-6	0.7	14%	0.2
23	CCN(C(=O)CSc1nnc(-c2ccncc2)n1Cc1ccccc1)C1CCS(=O)(=O)C1 (stereo not drawn)	i	0.8	13	7	-1.0	3	0.71	-4%	4.5
24	COc1ccc(CCNC(=O)CCCN2C(=O)c3ccccc3C2=O)cc1OC	.	.	.	.	.	-9	0.67	2%	-0.2
25	Cc1c(C(=O)Nc2ccccc2-c2ccccc2)cccc1[N+](=O)[O-]	.	.	.	.	.	-4	0.72	23%	-2.1

Profiles from above. Order of values: FGF22 binding	AF4-AF9 inh	rRNA inh HTS	rRNA inh HTS OD600	rRNA inh HTS RFP	ALR inh	Ecoli growth	Vif A3G	HNF4A DNA FP
Entry for COc1ccc(C2CC(=O)C=C(NCCC(C)C)C2)cc1 (stereo not drawn) → .	.	.	.	.	-13	0.76	1%	2.9
Entry for CCOC(=O)c1cc2c(=O)[nH]ccc2nc1C(F)(F)F → i	-12	-1	-2	0.2	-10	0.63	1%	3.7
Entry for Cc1c(N=C2SCC(=O)N2c2c(C)n(C)n(-c3ccccc3)c2=O)c(=O)n(-c2ccccc2)n1C → .	.	.	.	.	-3	0.66	-1%	0.4

Continued.
cpd	Molecule	FGF22 binding	AF4-AF9 inh	rRNA inh HTS	rRNA inh HTS OD600	rRNA inh HTS RFP	ALR inh	Ecoli growth	Vif A3G	HNF4A DNA FP
26	OC[C@@H]1[C@@H](c2ccc(-c3ccccc3)cc2)[C@@H]2CN(Cc3cncnc3)CCCCN12	i	-1.7	1	-1	-4.2	.	.	.	.
27	C[C@@H]1CCCCO[C@@H](CN(C)CC2CCCCC2)[C@@H](C)CN([C@H](C)CO)C(=O)c2cc(NS(C)(=O)=O)ccc2O1	i	-1.2	1	1	1.1	.	.	.	.
28	Cc1c(NC(=S)NC(=O)C(c2ccccc2)c2ccccc2)cccc1C(=O)O	.	.	.	.	.	4	0.71	-2%	1.3
29	O=C(Nc1ccc2ccccc2c1)c1ccc(Cl)cc1	i	-15	7	6	0.4	4	0.71	-1%	-0.8
30	CCCCNC(=O)c1nc(-c2ccccc2)oc1-c1ccc(Cl)cc1	i	.	6	17	-4.6	.	.	.	0.1
31	COc1ccc([N+](=O)[O-])c(OC)c1C(=O)Nc1ccc(F)cc1F	i	.	2	7	1.9	-2	0.64	-2%	1.2
32	CCN1[C@@H]2c3ccc(-c4ccccc4OC)c(=O)n3C[C@@H]2[C@@H](CO)[C@@H]1C(=O)Nc1nccs1	i	-1.6	-6	-3	0.2	.	.	.	.
33	CCN(C(=O)c1c(-c2ccccc2Cl)noc1C)C1CCCCC1	i	5.9	-1	-13	-2.4	-7	0.69	.	-1.8
34	COc1ccc(CC(C)Nc2cccc(SC)c2)cc1 (stereo not drawn)	i	6.3	2	-7	-4.2	47	0.67	10%	-2.4
35	COc1cc(CNCc2cc(OC)c(OC)c(OC)c2)cc(OC)c1	i	1.0	-5	5	-4.7	.	0.71	-6%	2.4
36	Cc1cc(C)n(CC(C)O)c(=O)c1C#N (stereo not drawn)	i	-2.4	16	1	-0.9	-4	0.7	10%	1.6
37	COc1ccc(NC(=O)Nc2ccc3c(c2)C(=O)N([C@H](C)CO)C[C@@H](C)[C@H](CN(C)S(C)(=O)=O)O3)cc1	i	-2.1	1	10	-2.4	.	.	.	.
38	O=C(Nc1ccc2c(c1)[C@H]1C[C@H](CC(=O)N3CCc4ccccc4C3)O[C@@H](CO)[C@H]1O2)c1ccc2c(c1)OCO2	i	2.7	-8	-32	0.8	.	.	.	.
39	CC(=O)N(C)C[C@@H]1Oc2ncc(C#Cc3ccc(F)cc3)cc2C(=O)N([C@@H](C)CO)C[C@@H]1C	i	-0.5	10	12	-1.6	.	.	.	.
40	C#CCOCCOCCOCCNc1nc(N2CCN(C(=O)[C@H](CCC(=O)O)n3cc(CN)nn3)CC2)nc(N2CCN(C(=O)[C@H](CCC(=O)O)n3cc(CN)nn3)CC2)n1	i	-0.9	12	10	-2.3	.	0.71	2%	1.0
41	CCOc1cc(NC(=O)C2CC2)c(OCC)cc1NC(=O)c1cc(OC)c(OC)c(OC)c1	i	1.4	6	12	-0.7	-22	0.71	.	0.4
42	O=C1CCCc2oc3ccc(O)cc3c21	.	.	.	.	.	26	0.64	-1%	-1.0
43	Cc1c(NC(=O)CSc2nncc3ccccc23)c(=O)n(-c2ccccc2)n1C	.	.	.	.	.	8	0.74	0%&1%	-4.5
44	CCCCCCC(=O)Oc1cccc(N2C(=O)C3CCCCC3C2=O)c1 (stereo not drawn)	i	-2.7	19	16	0.5	.	0.7	-4%	0.2
45	C[C@H](CO)N1C[C@H](C)[C@@H](CN(C)Cc2ccccc2)Oc2cc(C#C[C@@H](C)O)ccc2S1(=O)=O	i	3.2	-8	-20	2.7	.	.	.	.
46	O=C(Cc1ccccc1)Nc1ccc(NC(=O)c2cccs2)c(Cl)c1	i	0.6	.	.	.	-4	0.73	-9%	-1.3
47	O/N=C1\CC/C(=N\O)c2nn(-c3ccccc3Cl)nc21	i	3.5	3	2	1.4	1	.	1%	0.0
48	O=C(NC(=S)Nc1ccc2nc[nH]c2c1)c1ccccc1	i	3.8	5	5	-1.6	-5	0.68	.	-0.7
49	C[C@@H]1CN([C@@H](C)CO)C(=O)c2cc(NC(=O)CCC(F)(F)F)ccc2O[C@@H](C)CCCCO[C@@H]1CN(C)C(=O)CCCN(C)C	i	-2.5	3	8	-0.2	.	.	.	.
50	O=C(NNc1nc2ccccc2s1)Nc1ccc(Cl)c(Cl)c1	i	-16	-17	-5	-0.7	-3	.	20%	-4.4
51	C[C@@H]1CCCCO[C@@H](CN(C)Cc2ccc(Cl)c(Cl)c2)[C@H](C)CN([C@H](C)CO)C(=O)c2cc(NS(=O)(=O)c3cn(C)cn3)ccc2O1	i	6.0	3	-19	6.3	.	.	.	.
52	CCc1ccc(CN2C(=O)CCC2(C)C(=O)NC2CCCC2)cc1 (stereo not drawn)	.	.	.	.	.	-18	.	-3%	1.5
53	COc1ccc(NC(=O)CCC(=O)OCc2ccc(Br)cc2)cc1	.	.	.	.	.	-2	0.69	.	0.2
54	Cc1ccc(S(=O)(=O)NCC(=O)N(CC2CCCO2)C(C(=O)NC2CCCC2)C(C)C)cc1 (stereo not drawn)	i	-0.2	4	-2	-3.1	.	0.65	-10%	-1.7
55	COc1ccc([N+](=O)[O-])cc1C1NN=C(c2ccccc2O)S1 (stereo not drawn)	.	.	.	.	.	.	0.78	-9%	-5.6
56	CCOC(=O)c1nnn(-c2nonc2N)c1CNC(C)C	.	.	.	.	.	-3	0.71	-3%	-2.7
57	Cc1noc(C)c1S(=O)(=O)Nc1ccc2c(c1)C(=O)N([C@@H](C)CO)C[C@@H](C)[C@@H](CN(C)C(=O)Nc1ccc(F)cc1)OCCCC[C@@H](C)O2	i	2.0	1	-5	-0.4	.	.	.	.
58	O=C(NCCOc1ccccc1)C1CCC(=O)N(CCN2CCOCC2)C1 (stereo not drawn)	i	-2.2	5	12	-1.0	-3	0.7	.	0.6
59	O=C(C[C@@H]1CC[C@H]2[C@@H](COC[C@@H](O)CN2Cc2nccs2)O1)NCc1ccc(Cl)cc1	i	-1.4	-3	-5	-1.0	.	.	.	.
60	C[C@@H]1CN([C@@H](C)CO)C(=O)c2cc(NS(=O)(=O)c3ccc(Cl)cc3)ccc2O[C@@H](C)CCCCO[C@@H]1CN(C)C(=O)CCCN(C)C	i	4.3	5	3	0.0	.	.	.	.
61	O=C(NC1CCCC1)N1CCCCN2[C@H](C1)[C@H](c1ccc(-c3cncnc3)cc1)[C@@H]2CO	i	-4.9	5	8	-3.8	.	.	.	.
62	Cc1ccccc1NC(=O)N(C(C)C)C(C)C	.	.	.	.	.	-8	0.72	2%	2.7
63	C[C@H](CO)N1C[C@H](C)[C@H](CN(C)S(=O)(=O)c2ccc(C#N)cc2)Oc2ncc(-c3cccc(F)c3)cc2C1=O	i	-3.2	-6	10	-0.4	.	.	.	.
64	O=C1CC(c2ccccc2)CC(=O)C1=CN1CCCC1 (stereo not drawn)	i	-0.8	15	7	3.3	24	0.69	.	-3.0

High-throughput results (PubChem BioAssay)

Not all compounds are listed; rates above refer to the full screens.
